SARS PLpro yeast: SARS-CoV PLP inhibition in yeast. S. cerevisiae expressing SARS-CoV PLpro, growth rescue; control for the full effect not named in the record. AID 485353. Potency, µM (doses to about 32.9 µM), without a hit: at the highest dose activity, positive = growth rescue. 0.19% of 330,000 active; note: 0% is about no effect; nearly all actives have a fitted effect of over 55% in size; growth read by luminescence after 48 h
Cruzain noTriton: blocks cruzain activity in detergent-free assay; AID 1476; 2.3% of 200,000 active; Potency, µM, without a hit: max response, negative = inhibition, most hits filed as inhibitors; P25779; purified cruzain, Z-FR-AMC fluorescence, no detergent; active = well fitted curve in the direction sought with a large enough effect; inconclusive = small, poorly fitted or top-dose-only effect, or another doubt; inactive = no such curve, though single readings can be large; an effect the other way counts as inactive or inconclusive;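 note: plate controls were enzyme without inhibitor for no effect and buffer without enzyme for full effect; nearly all actives have a fitted effect of over 40% in size; top concentration of the series not given in the record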
Target sequence (P25779 123-467 limits assumed): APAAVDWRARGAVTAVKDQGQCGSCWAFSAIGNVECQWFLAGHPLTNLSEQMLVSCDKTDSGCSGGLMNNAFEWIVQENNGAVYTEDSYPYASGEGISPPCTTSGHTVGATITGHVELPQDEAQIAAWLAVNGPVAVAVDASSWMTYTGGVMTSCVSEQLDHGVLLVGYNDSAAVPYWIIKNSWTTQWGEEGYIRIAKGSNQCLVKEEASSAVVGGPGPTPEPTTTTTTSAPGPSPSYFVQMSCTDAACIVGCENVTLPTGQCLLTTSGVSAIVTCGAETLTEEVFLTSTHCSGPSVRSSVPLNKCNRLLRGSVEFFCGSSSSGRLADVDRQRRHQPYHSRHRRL
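Purified cruzain at 1.5 nM, pre-incubated 15 min with compound at room temperature in 100 mM sodium acetate pH 5.5, 5 mM DTT, 0.00005% Triton X-100. Reaction started with 2 uM Z-FR-AMC; AMC fluorescence increase over 60 s gives rate.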
Cruzain inh Det: cruzain (T. cruzi) inhibition with detergent. P25779. purified cruzain, Z-FR-AMC fluorescence, 0.01% Triton. Potency, µM, without a hit: max response, negative = inhibition, actives largely listed as inhibitors. 0.43% of 200,000 active. AID 1478; active = well fitted curve in the direction sought with a large enough effect; inconclusive = small, poorly fitted or top-dose-only effect, or another doubt; inactive = no such curve, though single readings can be large; an effect the other way counts as inactive or inconclusive;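 note: plate controls were neutral wells for no effect and buffer without enzyme for full effect; nearly all actives have a fitted effect of over 40% in size; top concentration of the series not given in the record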
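Purified cruzain (1.5 nM final) was preincubated with compounds for 15 min at room temperature in 100 mM sodium acetate pH 5.5, 5 mM DTT, 0.01% Triton X-100. Reaction started with 2 uM Z-FR-AMC; AMC fluorescence change over 60 s gave activity.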
2A StopGo: lowers the luciferase signal of an FMDV 2A StopGo reporter. human cells with a luciferase reporter of 2A StopGo recoding; control for the full effect not named in the record. Potency, µM (doses to about 57.9 µM), for inactives: at the top dose signal change, negative = less light. 1.2% of 410,000 active. AID 1159524; active = well fitted falling curve with a large enough effect; inconclusive = small, poorly fitted or top-dose-only effect; inactive = no such curve, though single readings can be large or run the other way; tested in HEK293T cells; note: % is set by controls: 0 for no effect and ±100 for the full control effect; nearly all actives have a fitted effect of over 45% in size; luciferase light after 4 h
RE007 growth inh: less growth of the S. pombe RE007 Vpr strain; 0.21% of 360,000 active; Potency, µM (series often up to 92.2 µM), inactives show at the highest dose activity change, negative = less growth; S. pombe RE007 Vpr strain, BacTiter-Glo ATP luminescence, 24 h; control for the full effect not named in the record; active = well fitted falling curve with a large enough effect; inconclusive = small, poorly fitted or top-dose-only effect; inactive = no such curve, though single readings can be large or run the other way;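 note: % is set by controls: 0 for no effect and ±100 for the full control effect; nearly all actives have a fitted effect of over 50% in size; the assay follows cell death caused by Vpr and the record does not say whether a fall means rescue or toxicity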
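Fission yeast RE007 carrying one integrated HIV-1 vpr copy, seeded at OD 0.01 in PMG+AL medium with 23 nL pinned compound. Grown 24 h at 30 degrees; viability read by BacTiter-Glo luminescence after 5 min.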
MARV entry inh: Marburg virus entry inhibition. Marburg virus pseudotyped entry inhibition, cell reporter; control for the full effect not named in the record; about a third of the inactives were read at about 46 µM. Potency, µM (top dose mostly 37.8 µM), for inactives: at the top dose activity change, negative = inhibition, most hits filed as inhibitors. 1.8% of 300,000 active. AID 540276; active = well fitted inhibition curve with a large enough effect; inconclusive = small, poorly fitted or top-dose-only effect, or effect the other way; inactive = flat fitted curve, though single readings scatter; tested in HEK293 cells; about a fifth of its hits are not listed in these tables; note: % is set by controls: 0 for no effect and ±100 for the full control effect; luciferase read-out
NS1 function inh: influenza NS1 inhibition; S. cerevisiae slowed by influenza A NS1, growth recovery by OD600; 0.4% of 270,000 active; Potency, µM (doses to about 46.1 µM), for the others: at the highest dose activity, positive = more growth; AID 2326; note: actives are rising curves; nearly all actives have a fitted effect of over 50% in size
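Growth recovery, yeast-based: influenza A NS1 expressed in S. cerevisiae causes slow growth, and suppressors are detected by OD600. The parent strain without NS1 is used as positive control.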
LASV entry inh: inhibitors of Lassa virus binding or cell entry; Lassa virus pseudotype entry inhibition, cell reporter; control for the full effect not named in the record; Potency, µM (top dose mostly 37.9 µM), inactives show top-dose activity change, negative = inhibition, actives largely listed as inhibitors; 1.2% of 300,000 active; active means well fitted inhibition curve with a large enough effect; inconclusive means small, poorly fitted or top-dose-only effect, or effect the other way; inactive means flat fitted curve, though single readings scatter; tested in HEK293 cells; note: % is set by controls: 0 for no effect and ±100 for the full control effect; nearly all actives have a fitted effect of over 50% in size; luciferase read-out
* = called active by the depositor; ? = inconclusive; · = not tested or not shown; & = joins results of further samples; [ ] = dose if it differs, or a comment. Unless noted, calls come from the whole dose curve; as a rule, active means well fitted rising curve with a large enough effect; inconclusive means small, poorly fitted or top-dose-only effect; inactive means no such curve, though single readings can be large or run the other way. Potency is the fitted concentration of half-maximal effect.

SMILES	SARS PLpro yeast	Cruzain noTriton	Cruzain inh Det	2A StopGo	RE007 growth inh	MARV entry inh	NS1 function inh	LASV entry inh
CCCC(NCC(=O)Nc1cc(S(=O)(=O)N2CCOCC2)ccc1OC)c1ccccc1 (centres undefined)	-2%	·	·	-15%	-5%	?	·	?
Cc1ccc(-c2ccc(CCC(=O)O)n2-c2ccc(C(N)=O)cc2)cc1	·	-4%	-5.9%	-13%	·	15%[46.1 µM]	·	3%[46.1 µM]
CCOc1cccc(C2c3c(-c4cc(C)ccc4O)n[nH]c3C(=O)N2Cc2ccco2)c1 (centres undefined)	·	?	-17%	-24%	·	-23%[46.1 µM]	·	?
COc1ccccc1CNc1nc2nc(C)c(Cl)c(=O)n2[nH]1	2%	0%	1.8%	-20%	8%	?	10%	2%
CC(C)(C)C(=O)CSc1nc2ncc(Br)cc2[nH]1	-9%	6%	-6.2%	-13%	4%	16%	-22%	-12%
Cc1cccc(C)c1OP(N)(=O)Oc1c(C)cccc1C	2%	·	·	0%	-18%	·	-2%	·
Cc1nc(Cc2nnc(SCC(=O)N3CCN(c4ccccc4)CC3)o2)cs1	-6%	·	·	?	6%	?	·	-5%
CCOc1ccc(C(=O)Nc2ccc(-c3nc4cc(CC)ccc4o3)cc2)cc1	·	-8%	-1.7%	-25%	·	·	·	-3%[46.1 µM]
CN(CC(=O)Nc1ccc(F)c(F)c1F)C(=O)CC1CCCCC1	-5%	·	·	-23%	-1%	-4%	·	-14%
O=C(NCc1ccco1)c1cc(C(=O)C2CCCCC2)c[nH]1	-1%	-1%	7.4%	14%	8%	-5%	-2%	?
CCc1ccccc1NC(=O)COC(=O)C1CC(=O)N(c2ccc(F)cc2)C1 (centres undefined)	0%	0%	-1.2%	15%	-6%	5%	-6%	-1%
CCCc1c(C)nc(-c2ccc(C)cc2)nc1OC(=O)N(C)C	-1%	·	·	-18%	4%	-5%[46.1 µM]	-4%	8%
O=C(Nc1ccccc1)N1CCCN(c2nccc(C(F)(F)F)n2)CC1	-1%	·	·	-2%	-15%	-3%[46.1 µM]	-5%	-15%[46.1 µM]
O=C(Nc1ccc(F)cc1)c1c(Cl)nc2ccccn12	-3%	·	·	29%	-6%	?	-4%	-10%
COc1cccc(N2CCN(c3ccc4nnc(CCC(=O)N5CCN(C)CC5)n4n3)CC2)c1	-3%	·	·	-13%	-15%	·	10%	·
COCCNC(=O)COc1ccccc1Cl	0%	-8%	3.3%	11%	6%	22%	-7%	2%
N#CCCN1CCN(Cc2ccccc2)CCC1=O	0%	·	·	-19%	-24%	·	-11%	·
COc1cc(-c2cc(OC)c(O)c(OC)c2)cc(OC)c1O	·	·	·	-2%	9%	?	·	?
CC(C)CC(c1nnnn1Cc1ccccc1)N1CCC(C(N)=O)CC1 (centres undefined)	0%	6%	2.2%	26%	-18%	-19%	-2%	-4%
Cc1ccc(NC(=O)Cn2c(=O)n(CC(=O)NCCc3ccccc3)c(=O)c3ccccc32)cc1C	·	-8%	-1.5%	-25%	·	14%[46.1 µM]	·	-2%[46.1 µM]
COc1cc(Br)c(CNc2cc(C)ccc2C)cc1OC	2%	·	·	?	-15%	·	-27%	·
COc1ccc(C)cc1-n1nnnc1SCc1cn2ccsc2n1	0%	-6%	0.2%	29%	12%	-3%	-8%	3%
COc1ccc(Nc2nc(N)c3ccccc3n2)c(OC)c1	-6%	·	·	11%	-17%	?	-13%	-7%[46.1 µM]
COc1ccc(/C=C2\SC(=S)N(CCC(=O)Nc3ccc(O)cc3)C2=O)cc1	-4%	·	·	61%[activator]	-8%	12%	4%	?
Cc1nc2ccccn2c1C(=O)NC1CCCC1	7%	·	·	-10%	-1%	?	4%	11%
O=C(Cc1ccccc1)NN1C(=O)c2ccccc2C1=O	-1%	·	·	-11%	5%	20%[46.1 µM]	6%	4%
N#CC(C(=O)NC1CCCCC1)c1nc2ccccc2nc1N1CCN(c2ccc(F)cc2)CC1 (centres undefined)	-3%	?	1.6%	·	·	10%	-4%	·
O=C(c1ccc2nccnc2c1)N1CCCC(Nc2ccc(F)c(F)c2)C1 (centres undefined)	-6%	·	·	-6%	-1%	·	10%	·
CCC1CCc2sc(C(=O)N(C)CC(=O)Nc3ccc(N4CCOCC4)cc3)cc2C1 (centres undefined)	-12%	·	·	-14%	2%	-1%	·	0%
CCOC(=O)C1=C(c2ccccc2)N2CCS(=O)(=O)N=C2S1	-7%	12%	12%	·	1%	14%	9%	12%
Cc1ccc(NC(=O)CSc2ccccn2)cc1S(=O)(=O)N1CCOCC1	-1%	·	·	17%	-3%	?	-8%	?
COc1ccc(CCNC2CCc3ccccc3C2)cc1 (centres undefined)	-2%	·	·	2%	-15%	·	23%	·
N=c1cc(C2(O)CCCCC2)n2c(nc3ccccc32)s1	-1%	5%	0.0%	-23%	3%	5.8µM*	-49%	10µM*
Cc1ccccc1NC(=O)COc1coc(CN2CCCc3ccccc32)cc1=O	2%	·	·	?	-10%	?	·	?
COc1ccc(CN2C(=O)CC(Cc3ccc(C)cc3)C2=O)cc1OC (centres undefined)	8%	-8%	-1.1%	?	7%	-13%	-8%	16%
CCOC(=O)c1sc(NC(=O)c2ccc(S(=O)(=O)N3CCCCCC3)cc2)nc1-c1ccccc1	-2%	?	-1.9%	?	-13%	?	2%	?
CCCN1C(=O)C2(OCCO2)c2cc(Cl)ccc21	2%	·	·	-3%	8%	·	-13%	·
Cc1ccc(NC(=O)Nc2cccs2)c(Cl)c1	·	2%	-0.4%	27%	-17%	?	-23%	?
CCO[C@H]1OC(C(=O)N2CCN(Cc3ccc4c(c3)OCO4)CC2)=C[C@@H](c2ccc(Br)cc2)[C@@H]1CCCO	1%	·	·	?	1%	·	-12%	·
CCOc1ccccc1-c1nc(-c2ccc(-c3ccccc3)nc2OCC)no1	·	-8%	-1.1%	-15%	·	?	·	?
Nc1ccc(N(CCO)CCO)cc1	0%	·	·	0%	-11%	-13%[46.1 µM]	2%	·
Cc1c(N(C)C(=O)c2ccco2)c(=O)n(-c2ccccc2)n1C	8%	1%	1.2%	-3%	-12%	20%	2%	0%
COC(=O)c1c(NC(=O)c2nn(C)cc2Cl)sc2c1CCCC2	17%	?	-22%	-6%	-10%	-6%	-4%	1%
Cc1cccc(C(=O)NCCNC(=O)c2ccccn2)c1	1%	·	·	29%	30%	-1%[46.1 µM]	?	-1%[46.1 µM]
O=C(CN1C(=O)C2C3C=CC(C3)C2C1=O)N1CC=C(c2ccccc2)CC1 (centres undefined)	1%	-2%	2.1%	-6%	8%	21%	-1%	3%
CC(=O)c1cccc(NC(=O)CCc2c(C)nc3nc(CN)nn3c2C)c1	·	-2%	0.1%	-7%	·	?	·	-2%[46.1 µM]
CCCCSc1nc(O)c(C2OC(=O)c3c2ccc(OC)c3OC)c(=O)n1-c1ccccc1 (centres undefined)	16%	?	-3.0%	-25%	-2%	-1%	?	2%
Cc1cc(C(=O)C(=O)N(C)C)c(C)n1-c1ccc([N+](=O)[O-])cc1	9%	1%	-0.7%	?	6%	0%	0%	14%
Cc1ccc(S(=O)(=O)Nc2ccccc2C(=O)N2CCN(C)CC2)cc1	-3%	·	·	3%	8%	·	1%	·
CCCCn1c(N)c(N(CC(C)C)C(=O)CCC2CCCCC2)c(=O)[nH]c1=O	0%	·	·	-11%	1%	-10%	13%	-3%
C=CCNC(=O)c1scc2c1CCCC2	-3%	-1%	-1.3%	8%	-26%	24%	-1%	1%
Cc1cc(S(=O)(=O)Nc2ccc(C(=O)NCc3ccncc3)cc2)ccc1F	-1%	·	·	13%	-10%	13%	·	1%
COc1ccc(NC(=O)CSc2nnc(-c3ccncc3)o2)c([N+](=O)[O-])c1	12%	·	·	-2%	11%	-24%	0%	6%
Nc1nc(CN2CCc3ccccc3C2)nc(Nc2ccccc2)n1	4%	-5%	0.2%	-5%	-11%	?	15%	-24%
COc1ccc2nc(COC(=O)c3ccco3)c(C(C)=O)[n+]([O-])c2c1	-1%	2%	-3.5%	-14%	0%	-8%	5%	-2%
CCCCN(CC)CCNC(=O)C1CCN(S(=O)(=O)c2cccc3nsnc23)CC1	2%	-4%	-3.8%	18%&-15%	-6%	-30%&-29%[46.1 µM]	10%	22%&3%[46.1 µM]
NC(=O)c1nc(-c2ccc(F)c(F)c2)nc2c1[nH]c(=O)n2-c1cccc(Cl)c1	·	4%	-1.1%	0%	·	8%[46.1 µM]	·	?
CCSc1nnc2c(n1)OC(c1ccc(OC)c(OC)c1)N(C(C)=O)c1ccccc1-2 (centres undefined)	·	-13%	-6.7%	5%	·	-1%[46.1 µM]	·	-16%[46.1 µM]
CCCCNC(=O)c1cccc(-n2cnc3cccnc32)c1C	·	6%	-1.6%	0%	·	·	·	-2%[46.1 µM]
COc1ccc(CCN2CC(C(=O)OCC(=O)N(C)Cc3ccccc3)CC2=O)cc1OC (centres undefined)	·	·	·	-10%	-13%	14%	·	1%

Next structures follow:
SMILES	SARS PLpro yeast	Cruzain noTriton	Cruzain inh Det	2A StopGo	RE007 growth inh	MARV entry inh	NS1 function inh	LASV entry inh
C#CCOCCOCCOCCNc1nc(N2CCN(C(=O)[C@H]([C@@H](C)CC)n3cc([C@@H](N)CO)nn3)CC2)nc(N2CCN(C(=O)[C@H]([C@@H](C)CC)n3cc([C@@H](N)Cc4ccc(O)cc4)nn3)CC2)n1	-1%	·	·	-8%	13%	·	5%	·
O=C(Nc1ccc2c(c1)C(=O)NC2=O)c1ccccc1Cl	8%	·	·	9%	2%	·	12%	·
CCOC(=O)c1sc(/N=C/Nc2nc(C)c(C(=O)OCC)s2)nc1C	4%	1%	1.5%	0%	10%	?	-6%	20%
O=C1Nc2ccccc2OCc2c1cccc2[N+](=O)[O-]	-1%	·	·	-1%	2%	4%[46.1 µM]	·	·
CCOc1ccc(C(=O)N2CCN(c3ccccn3)CC2)cc1OCC	13%	·	·	4%	1%	8%	-21%	17%
